H5N1 CPE = MDCK cell protection from H5N1 avian flu; cytopathic effect, luminescence, 72 h; active compounds read high; no value below 0 was filed and about half of the inactive calls have no number; reference of the scale not given here; inhibition, % at 50 µM; actives 0.07% (n = 96,000); in the data active = inhibition above about 25%
The depositor's hits bear a star; i = inactive. Some of the compounds tested; rates above refer to the full screens.

Structure | H5N1 CPE
O=C(CN(c1ccc(F)cc1)S(=O)(=O)c1ccccc1)NCc1ccco1 | 0.1
COc1ccc(-c2nnc(-c3cc4c(ccc5ccccc54)oc3=O)o2)cc1 | i
CCCCS(=O)(=O)C(=C1Nc2ccccc2N1)S(=O)(=O)CCCC | 0.5
CCOc1ccc(-n2c(SCC(N)=O)nc3c(c2=O)SCC3)cc1 | i
O=C(Nc1nnc(-c2ccccc2)s1)c1ccc(Cl)c(S(=O)(=O)N2CCOCC2)c1 | 0.2
c1ccc2c(CSCCc3ccncc3)cccc2c1 | 7.0
CC1=Nn2c(nnc2C2CCCCC2)SC1 | i
C/C(N)=C(/C#N)C(=O)CSc1nnc(-c2ccc3c(c2)OCO3)o1 | 0.1

Additional results follow.
Structure | H5N1 CPE
O=S1(=O)CC(NCc2ccccc2)C(Nc2ccc(Cl)cc2)C1 (stereo unspecified) | 1.3
O=C1c2ccccc2C(=O)N1CCCCSc1nnnn1-c1ccccc1 | i
COC(=O)c1[nH]c2ccccc2c1NC(=O)CN1CCN(c2cccc(Cl)c2)CC1 | 1.9
Cc1ccccc1OCC(=O)N(Cc1ccc(N(C)C)cc1)C1CCS(=O)(=O)C1 (stereo unspecified) | 0.1
O=C(c1ccc2c(c1)OCO2)N(c1ccc(F)cc1)C1C=CS(=O)(=O)C1 (stereo unspecified) | 0.1
CCCCC(CC)CNC(=O)C1C2C=CC(C2)C1C(=O)O (stereo unspecified) | 0.2
CCN1C(=O)/C(=C2\SC(=S)N(CCCOC)C2=O)c2ccccc21 | 0.6
Cc1ccc(NCc2nnc(SCCN3CCCCC3)n2CC2CCCO2)c(C)c1 (stereo unspecified) | i

Further records follow.
Structure | H5N1 CPE
COc1cc(C(=O)Nc2nc3ccccc3s2)ccc1OCc1c(C)noc1C | i
NS(=O)(=O)c1ccc2c(c1)C1C=CCC1C(C1CC=CCC1)N2 (stereo unspecified) | i
CCOc1ccc(NC(=O)CCNS(=O)(=O)c2ccc3c(c2)c(=O)n(C)c(=O)n3C)cc1 | 3.5
Cn1c(=O)c2c(ncn2CCN(CCO)Cc2ccccc2)n(C)c1=O | 3.0
CC(C)CC(C(=O)N1CCc2ccccc2C1)N1C(=O)c2ccccc2C1=O (stereo unspecified) | i
O=C(COc1ccc(Cl)cc1)NCc1nnc(SCC(=O)N2CCCc3ccccc32)o1 | i
Cc1cccc(N2CCN(c3nnnn3-c3ccccc3)CC2C)c1 (stereo unspecified) | 3.2
Cc1cc(Oc2ccc(C#N)cc2)nc(NCc2ccccc2)n1 | 0.5

Other entries.
Structure | H5N1 CPE
CC(C)OCC(O)CSc1ccccn1 (stereo unspecified) | 0.1
COc1cccc(-n2nnnc2SCC(=O)N2CCCc3ccccc32)c1 | 1.8
Cc1cc(C)cc(N2C(=O)CC(N(C(=O)c3ccco3)c3cc(C)cc(C)c3)C2=O)c1 (stereo unspecified) | i
Cc1cc(NC(=O)Cn2nc3c(cc2=O)CCCC3)ccc1Br | i
O=C(COC(=O)c1ccccc1F)c1ccc(-n2nncc2-c2ccco2)cc1 | 1.0
O=c1oc2c3c(nn2c2ccccc12)CCCC3 | 1.3
Cc1ccc(-c2nnn(CCC(=O)NC3CCCC3)n2)cc1 | i
O=C(CC1(C(=O)O)CCCC1)N1CCOCC1 | 0.3

The results go on.
Structure | H5N1 CPE
CS(=O)(=O)c1ccc(N2CCOCC2)c(S(C)(=O)=O)c1 | 0.4
Cn1c(=O)oc2cc(S(=O)(=O)NCCN3CCCCCC3)ccc21 | 2.1
O=S(=O)(c1ccc(Cl)s1)N1CCCc2cccc(O)c21 | 2.0
Cc1nc2ccccc2nc1OCC(=O)Nc1cc(C(F)(F)F)ccc1N1CCOCC1 | i
CC(=O)Nc1ccc(-c2csc(NC(=O)c3ccc(C)o3)n2)cc1 | i
CCNC(=O)COC(=O)C1CCC(=O)N(c2ccc(OC)cc2)C1c1ccc(OC)cc1 (stereo unspecified) | 0.2
COC(=O)c1ccc(Cl)c(NC(=O)NC23CC4CC(CC(C4)C2)C3)c1 | i
Cc1ccc(CN(CC2CCCO2)C(=O)CN2C(=O)C(C(C)C)Oc3ccccc32)o1 (stereo unspecified) | i

Later entries
Structure | H5N1 CPE
COC(=O)c1c(NC(=O)c2ccco2)sc2c1C(C(=O)OC)CC2 (stereo unspecified) | 5.2
COc1ccccc1OCc1ccc(C(=O)N(C)C)o1 | i
COCCNC(=O)NC(=O)COC(=O)c1cc([N+](=O)[O-])ccc1Sc1nc(C)cs1 | 0.5
COC(=O)c1cc2oc3ccccc3c2n1CC(=O)N1CCCc2ccccc21 | 1.3
O=c1cc(CN2CCN(c3cccc(Cl)c3)CC2)c2cc3c(cc2o1)CCCC3 | i
O=C(Nc1ccc2oc(-c3ccccc3Cl)nc2c1)c1cncc(Br)c1 | i
CCN1CCN(C(=O)C2=C(C(=O)O)CCCC2)CC1 | 0.2
CCOC(=O)c1c(NC(=O)c2ccccc2Br)sc2c1CCc1ccccc1-2 | i

Retrieved one by one from the list above (4):
Structure | H5N1 CPE
COc1ccccc1OCc1ccc(C(=O)N(C)C)o1 | i
O=c1cc(CN2CCN(c3cccc(Cl)c3)CC2)c2cc3c(cc2o1)CCCC3 | i
COCCNC(=O)NC(=O)COC(=O)c1cc([N+](=O)[O-])ccc1Sc1nc(C)cs1 | 0.5
COC(=O)c1c(NC(=O)c2ccco2)sc2c1C(C(=O)OC)CC2 (stereo unspecified) | 5.2

Going on with the list:
Structure | H5N1 CPE
Cc1ccc(Nc2nc(C)cc(C)n2)c(Br)c1 | 0.5
Cc1ccc(CNC(=O)CCS(=O)(=O)c2ccc(Br)s2)o1 | 0.4
O=C(Nc1nnc(C2CCCCC2)s1)c1ccc(Br)s1 | i
CCCCCCCCCCCC(=O)NC(C(=O)OCC)C(O)c1cccc([N+](=O)[O-])c1 (stereo unspecified) | i
COc1cc(N2C(=O)NC3CC2(C)Oc2ccccc23)cc(OC)c1OC (stereo unspecified) | i
O=C(N1CCOCC1)n1nnc2ccccc21 | 0.4
Cc1cc(NC(=O)CSc2nnc(-c3ccco3)o2)no1 | i
COc1ccc(C2=CC(c3ccc(F)cc3)n3nnnc3N2)cc1 (stereo unspecified) | i

More compounds
Structure | H5N1 CPE
Cc1ccc2[nH]cc(C(=O)CN3CCOCC3)c2c1 | i
Cc1ccc(C(=O)NCCc2ccncc2)cc1 | 0.8
CCOC(=O)c1nn(-c2ccc(Cl)cc2)c2nc(-c3ccc(C)cc3)c(C#N)c(=O)n12 | 0.7
Cn1nc(C(F)(F)F)c(C#N)c1N1CCN(c2cccc(C(F)(F)F)c2)CC1 | i
O=C(CO/N=C/c1cccc([N+](=O)[O-])c1)Nc1ccc2ccccc2c1 | i
CCCC(=O)NCCCc1nc2ccccc2n1C | i
CCOC(=O)N1CCN(CC(=O)c2ccc3c(c2)CCN3C(C)=O)CC1 | 1.7
O=C(Cc1coc2ccc3ccccc3c12)NCc1ccccc1 | 0.2

Remaining list, next part.
Structure | H5N1 CPE
CCOC(=O)c1ccc(NC(=O)CN2CCN(c3ccccc3)CC2)cc1 | 1.7
COc1cccc(CNC(=O)CCS(=O)(=O)c2cccs2)c1 | i
CC(C)C(=O)c1cc2c(cc1NC(=O)Nc1cccc3ccccc13)OCCO2 | i
O=C(Cn1cnc2sc(-c3ccccc3)cc2c1=O)NCCc1ccccc1 | i
CCOc1cc(C(=O)Nc2cc(=O)n(C)c(=O)n2C)cc(OCC)c1OCC | 0.3
CN1/C(=C/C2CC(=O)NC2=O)C(C)(C)c2ccccc21 (stereo unspecified) | i
CCC(c1c(C)[nH]oc1=O)c1c(C)[nH]oc1=O | 0.4
CCC(Sc1ccc2nnc(-c3ccc(OC)c(OC)c3)n2n1)C(=O)O (stereo unspecified) | 1.8

The list goes on:
Structure | H5N1 CPE
CC1CC(NS(=O)(=O)c2cccs2)CC(C)(C)C1 (stereo unspecified) | 0.2
COc1ccc(OC)c(S(=O)(=O)Nc2ccccc2F)c1 | 0.4
CCC1Oc2ccccc2N(CC(=O)NCCCN2CCN(Cc3ccccc3)CC2)C1=O (stereo unspecified) | i
CCOC(=O)COc1ccc2c(c1)C(=O)CC1(CCCCC1)O2 | i
COC(=O)CSc1nc(-c2cccs2)ccc1C#N | i
CCCC(=O)Nc1ccc(C(=O)NCC(=O)OCC)cc1 | i
Cc1cc(-c2cccnc2)c(C#N)c(SCc2cccc(F)c2)n1 | 1.9
COc1ccc(-n2c(C)n[nH]c2=O)cc1 | 1.2

The results go on.
Structure | H5N1 CPE
COc1ccc(S(=O)(=O)N2CCSC2c2ccccc2)cc1 (stereo unspecified) | 0.7
Cc1c(NS(=O)(=O)c2ccc3[nH]c(=O)[nH]c3c2)c(=O)n(-c2ccccc2)n1C | 0.5
C=CCNc1nnc(Cl)c2ccccc12 | 1.8
CCOc1ncccc1C(=O)OCC(=O)Nc1c(C)cccc1C | 0.5
CC(C)CCNc1nc2c(c(=O)[nH]c(=O)n2C)n1CC(O)COC(C)C (stereo unspecified) | 0.1
CCn1nc(C)c(NC(=O)/C=C/c2cnn(C)c2C)c1C | 0.4
CC(NC(=O)COc1ccccc1)C(c1ccccc1)N1CCN(C)CC1 (stereo unspecified) | 1.4
Cc1cc(C)n2c(SCC(=O)NCc3ccco3)nnc2n1 | 3.9

The results go on.
Structure | H5N1 CPE
COC(=O)c1sc2ccccc2c1C(=O)OC | i
Cc1[nH]c2ccccc2c1/C=N/Nc1nc(Nc2ccc(F)cc2)nc(N2CCOCC2)n1 | i
Cc1nn(C(C)CC(=O)O)c(C)c1C (stereo unspecified) | 0.8
COC(=O)c1c(NC(=O)C2CC=CCC2C(=O)O)sc(C(N)=O)c1C (stereo unspecified) | 1.3
Cn1c(NC(=O)CCc2ccccc2)cc(=O)n(C)c1=O | 0.7
CCOC(=O)c1c(C)[nH]c(C)c1C(=O)COC(=O)CCOc1ccccc1OC | 1.8
Cc1ccc(NC(=O)COc2ccc(-n3ccnc3)cc2)cc1Cl | i
COc1ccc(CC2NCCC3(O)CCCCC23)cc1 (stereo unspecified) | 0.7

(next part)
Structure | H5N1 CPE
O=C(Nc1nc(-c2cc(Cl)sc2Cl)cs1)c1ccc(Br)s1 | i
CCOc1ccc(Br)cc1S(=O)(=O)Nc1ccccc1N1CCOCC1 | 1.4
O=C(NC(=S)Nc1ccc(Oc2ccc(Cl)cc2)cc1)c1ccccc1 | 16
COc1ccc(-c2nc(CCNC(=O)c3ccc(Br)o3)cs2)cc1 | 0.1
CCN(CC)CCn1c(=S)[nH]c2cc(Cl)ccc2c1=O | i
Cc1ccc(Oc2ccccc2/C=C/C(=O)O)cc1 | 0.2
Cc1ccc(-c2nc(C3CCN(S(=O)(=O)c4ccc(C(C)(C)C)cc4)CC3)no2)cc1 | 0.5
CCNC(=S)N1CCC(c2nc3ccccc3s2)CC1 | 0.1

(list continues)
Structure | H5N1 CPE
O=C(Nc1cccc2nsnc12)c1ccc(-c2ccc(Br)cc2)o1 | i
Nc1ncc(P(=S)(N2CCOCC2)N2CCOCC2)s1 | 0.5
C/C(NC(=O)c1ccccc1F)=C1\C(=O)C[C@@H]2[C@H]1C2(C)C | i
O=C(Nc1ccccc1)ON=C1c2ccccc2-c2ccccc21 | i
COc1ccc2[nH]c3c(NCCCN4CCCC4=O)ncnc3c2c1 | 0.4
CCOC(=O)N1CCN(C(=O)Cn2ncc3c2-c2ccccc2OC3)CC1 | 0.8
Cc1nn(-c2ccccc2)c(Cl)c1C1C(C#N)=C(N)Oc2c1c(C)nn2-c1ccccc1 (stereo unspecified) | i
COc1ccc(Nc2nc3ccccc3c(=O)s2)c(OC)c1 | i

Part of the list above, field by field:
Nc1ncc(P(=S)(N2CCOCC2)N2CCOCC2)s1
  H5N1 CPE: 0.5
CCOC(=O)N1CCN(C(=O)Cn2ncc3c2-c2ccccc2OC3)CC1
  H5N1 CPE: 0.8
O=C(Nc1cccc2nsnc12)c1ccc(-c2ccc(Br)cc2)o1
  H5N1 CPE: i
COc1ccc(Nc2nc3ccccc3c(=O)s2)c(OC)c1
  H5N1 CPE: i

(further entries)
Structure | H5N1 CPE
Cc1ccc(/C=C/C(=O)O)cc1S(=O)(=O)NCCCC(=O)O | 0.9
N#CCCCSc1nnc(-c2ccc(Cl)cc2)n1-c1ccccc1 | 1.3
COc1cccc(NC(=O)C2C3C=CC4(O3)C2C(=O)N(C2CC2)C4C(=O)NC2CCCCC2C)c1 (stereo unspecified) | i
OC1(c2ccccc2)C/C(=N\n2cnnc2)C=C1c1ccccc1 (stereo unspecified) | i
COC(=O)c1ccc(Oc2cc(C)nc(SC)n2)cc1 | i
CCOC(=O)N1CCN(C(=O)/C(=C/c2cccc3ccccc23)NC(=O)c2ccc(OC)cc2)CC1 | 0.1
COC(=O)C1ON2OC(C(=O)OC)C(C(=O)OC)C2C1CC(C)=O (stereo unspecified) | i
COc1cccc(OCC(=O)N2CCN(C)CC2)c1 | i

(more compounds)
Structure | H5N1 CPE
O=C(NCC(F)(F)F)Nc1ccccn1 | 0.9
C=C(C)C1Cc2c(C)nn(-c3ccccc3)c2C1 (stereo unspecified) | i
CSCCC(NC(=O)c1c(C)oc2c1CCCC2)C(=O)O (stereo unspecified) | 0.3
CCN(CC(=O)NC1CCCCCC1)S(=O)(=O)c1ccccc1 | 1.0
Cc1ccc2c(c1)c1cccc3c1n2CCN3CCC(N)=O | 0.2
CC(C)(C)c1ccc(C(=O)Nc2ccc(CC(=O)O)cc2)o1 | 0.3
O=C(Cn1c(-c2ccccn2)nc2ccccc21)NCCN1CCOCC1 | 0.5
CCOc1ccc2nc(SCC(=O)N(C)C3CCS(=O)(=O)C3)[nH]c2c1 (stereo unspecified) | i

The results go on:
Structure | H5N1 CPE
COc1ccc(-n2nnc3c(SCc4ccccc4)ncnc32)cc1 | i
CCC(NS(=O)(=O)c1ccc(OC)cc1)C(=O)O (stereo unspecified) | i
NC1=NC(c2ccc(Cl)cc2)n2c(nc3ccccc32)N1 (stereo unspecified) | i
Cn1c(=O)[nH]c(=O)c2c1nc(CN1CCN(c3cccc(Cl)c3)CC1)n2CCN1CCOCC1 | 1.5
CC(=O)c1cc2c(cc1NC(=O)CCc1ccccc1)OCO2 | i
